Bioassay records (PubChem BioAssay)
2A StopGo = lowers the luciferase signal of an FMDV 2A StopGo reporter; AID 1159524; Potency, µM (titrated, usually from 57.9 µM), for the others: at the highest dose signal change, negative = less light; human cells with a luciferase reporter of 2A StopGo recoding; control for the full effect not named in the record; 1.2% of 410,000 active; active = well fitted falling curve with a large enough effect; inconclusive = small, poorly fitted or top-dose-only effect; inactive = no such curve, though single readings can be large or run the other way; tested in HEK293T cells; further: on the % scale 0 is the no-effect control and ±100 the full control effect; nearly all actives have a fitted effect of over 45% in size; luciferase light after 4 h
SARS PLpro yeast = blocks SARS-CoV papain-like protease in a yeast assay; S. cerevisiae expressing SARS-CoV PLpro, growth rescue; control for the full effect not named in the record; Potency, µM (titrated, usually from 32.9 µM), inactives show top-dose activity, positive = growth rescue; 0.19% of 330,000 active; active means well fitted rising curve with a large enough effect; inconclusive means small, poorly fitted or top-dose-only effect; inactive means no such curve, though single readings can be large or run the other way; further: 0% is about no effect; nearly all actives have a fitted effect of over 55% in size; growth read by luminescence after 48 h
Cruzain Triton = inhibitors of Trypanosoma cruzi cruzain with detergent; P25779; purified cruzain, Z-FR-AMC fluorescence, 0.01% Triton; Potency, µM, inactives show max response, negative = inhibition, usual class: inhibitors; 0.43% of 200,000 active; AID 1478;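 further: plate controls were neutral wells for no effect and buffer without enzyme for full effect; nearly all actives have a fitted effect of over 40% in size; top concentration of the series not given in the record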
Target sequence (P25779 123-467 limits assumed): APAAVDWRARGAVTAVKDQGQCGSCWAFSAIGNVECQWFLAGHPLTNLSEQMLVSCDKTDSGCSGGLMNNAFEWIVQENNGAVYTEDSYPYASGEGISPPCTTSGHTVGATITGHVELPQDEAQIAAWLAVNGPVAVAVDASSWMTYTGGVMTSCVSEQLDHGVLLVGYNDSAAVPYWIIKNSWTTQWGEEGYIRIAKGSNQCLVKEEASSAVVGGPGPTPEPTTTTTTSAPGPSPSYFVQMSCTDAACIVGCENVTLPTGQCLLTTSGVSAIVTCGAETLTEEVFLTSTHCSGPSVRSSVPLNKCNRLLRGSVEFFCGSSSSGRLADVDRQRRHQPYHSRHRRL
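Compounds were screened in titration against cruzain (1.5 nM) with 0.01% Triton X-100 to counter colloidal aggregation. Activity was the AMC fluorescence increase over 60 s after adding 2 uM Z-FR-AMC at pH 5.5.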
LASV entry inh = Lassa virus entry inhibition. Lassa virus pseudotype entry inhibition, cell reporter; control for the full effect not named in the record. Potency, µM (series often up to 37.9 µM), without a hit: at the highest dose activity change, negative = inhibition, usual class: inhibitors. 1.2% of 300,000 active. AID 540256; active means well fitted inhibition curve with a large enough effect; inconclusive means small, poorly fitted or top-dose-only effect, or effect the other way; inactive means flat fitted curve, though single readings scatter; tested in HEK293 cells; further: on the % scale 0 is the no-effect control and ±100 the full control effect; nearly all actives have a fitted effect of over 50% in size; luciferase read-out
MARV entry inh = Marburg virus entry inhibition. Marburg virus pseudotyped entry inhibition, cell reporter; control for the full effect not named in the record; about a third of the inactives were read at about 46 µM. Potency, µM (series often up to 37.8 µM), without a hit: top-dose activity change, negative = inhibition, hits mostly inhibitors. 1.8% of 300,000 active. AID 540276; active = well fitted inhibition curve with a large enough effect; inconclusive = small, poorly fitted or top-dose-only effect, or effect the other way; inactive = flat fitted curve, though single readings scatter; tested in HEK293 cells; about a fifth of its hits are not listed in these tables; further: on the % scale 0 is the no-effect control and ±100 the full control effect; luciferase read-out
RE007 growth inh = less growth of the S. pombe RE007 Vpr strain; S. pombe RE007 Vpr strain, BacTiter-Glo ATP luminescence, 24 h; control for the full effect not named in the record; Potency, µM (series often up to 92.2 µM), inactives show top-dose activity change, negative = less growth; 0.21% of 360,000 active; active = well fitted falling curve with a large enough effect; inconclusive = small, poorly fitted or top-dose-only effect; inactive = no such curve, though single readings can be large or run the other way;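 further: on the % scale 0 is the no-effect control and ±100 the full control effect; nearly all actives have a fitted effect of over 50% in size; the assay follows cell death caused by Vpr and the record does not say whether a fall means rescue or toxicity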
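Fission yeast RE007 carrying one integrated HIV-1 vpr copy, seeded at OD 0.01 in PMG+AL medium with 23 nL pinned compound. Grown 24 h at 30 degrees; viability read by BacTiter-Glo luminescence after 5 min.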
Cruzain inh noDet = cruzain (T. cruzi) inhibition without detergent | Potency, µM, without a hit: max response, negative = inhibition, usual class: inhibitors | purified cruzain, Z-FR-AMC fluorescence, no detergent | 2.3% of 200,000 active | AID 1476;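 further: plate controls were enzyme without inhibitor for no effect and buffer without enzyme for full effect; nearly all actives have a fitted effect of over 40% in size; top concentration of the series not given in the record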
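Detergent-free condition (0.00005% Triton X-100) in acetate buffer pH 5.5 with DTT. 1.5 nM enzyme and compound were pre-mixed 15 min, then 2 uM Z-FR-AMC substrate added; reaction progress from fluorescence change between first and third reads (60 s).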
NS1 inh = inhibitors of influenza NS1 protein function. Potency, µM (series often up to 46.1 µM), for inactives: at the highest dose activity, positive = more growth. S. cerevisiae slowed by influenza A NS1, growth recovery by OD600. 0.4% of 270,000 active; active means well fitted rising curve with a large enough effect; inconclusive means small, poorly fitted or top-dose-only effect; inactive means no such curve, though single readings can be large or run the other way; further: nearly all actives have a fitted effect of over 50% in size
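A cell-based growth assay was used: compounds that relieve NS1-induced slow growth of budding yeast raise OD600. Assay medium was yeast nitrogen base with ammonium sulphate and -URA supplement, pH 6.0, with 2% galactose.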
An asterisk follows results filed as active; ? = inconclusive; nt = not tested or not shown; & = joins results of further samples; [ ] = another dose, or the depositor's remark. Unless noted, the call rests on the fitted dose curve; in most records, active means well fitted curve in the direction sought with a large enough effect; inconclusive means small, poorly fitted or top-dose-only effect, or another doubt; inactive means no such curve, though single readings can be large; an effect the other way counts as inactive or inconclusive. Potency means the concentration at half of the fitted maximal effect.

SMILES	2A StopGo	SARS PLpro yeast	Cruzain Triton	LASV entry inh	MARV entry inh	RE007 growth inh	Cruzain inh noDet	NS1 inh
CCC(C)(C)NC(=O)C(OC(=O)c1cc2sccc2n1C)c1ccc(OC)cc1 (stereo not given)	nt	-2%	-3.9%	?	1%	-7%	9%	1%
COc1ccc(N2C(=S)NC3c4cc(Cl)ccc4OC2(C)C3C(=O)N(C)C)cc1 (stereo not given)	15%	15%	nt	-21%[46.1 µM]	-13%[46.1 µM]	11%	nt	nt
C=C(C)CSc1nnc2n(Cc3ccccc3)c(=O)c3c4c(sc3n12)CCC4	-6%	2%	-0.8%	2%	7%[46.1 µM]	25%	6%	8%
Cc1ccc(S(=O)(=O)CCC(=O)Nc2nnc(-c3cccs3)o2)cc1	-10%	3%	nt	?	7%	9%	nt	nt
CC1(C)N=C(SCC(=O)Nc2ccc(Cl)cc2)C(c2ccccc2)=N1	-7%	-12%	-3.1%	-24%	?	-24%	-7%	-8%
COc1ccc(OC)c(NC2=NC3(CCCC3)N=C(N)N2)c1	-23%	4%	7.4%	13%	-19%	-3%	-9%	-4%
CN(C)C(=O)c1cc(C(=O)c2ccc(F)cc2F)c[nH]1	20%	0%	nt	1%[46.1 µM]	4%[46.1 µM]	3%	nt	9%
CCOc1ccccc1C(=O)Nc1nc2c(s1)CC(C)CC2 (stereo not given)	31%[activator]	nt	-6.8%	0%[46.1 µM]	?	nt	1%	nt
CCC1CCCCN1C(=O)c1cc(COc2ccc3ncccc3c2)on1 (stereo not given)	?	0%	nt	?	?	-27%	nt	2%
C#Cc1ccc(CN2CCN(CCCc3ccccc3)C(CCO)C2)cc1 (stereo not given)	-14%	3%	nt	?	4%[46.1 µM]	7%	nt	6%
C=CCn1c(SCC(=O)NCc2ccco2)nc2sc3c(c2c1=O)CCCC3	-23%	4%	-1.1%	-7%	?	2%	-13%	0%
Nc1[nH]n2c(=O)cc(-c3ccccc3)nc2c1N=Nc1ccccc1	-22%	-13%	-4.3%	?	?	13%	23%	10%
COc1ccc(Cl)cc1NC1=NCC(C)S1 (stereo not given)	-3%	1%	0.0%	2%	22%&22%&22%	-1%	-1%	-2%
COc1cccc(CNC(=O)C(=O)NCCC2CCCCN2S(=O)(=O)c2cccs2)c1 (stereo not given)	-12%	-3%	nt	-26%	?	-1%	nt	nt
CCN(CC)S(=O)(=O)c1ccc(N/N=C/c2ccc(OC)c(OC)c2OC)nc1	-21%	25%	-13%	2%	?	-16%	17%	0%
CCSc1nnc2c(n1)OC(c1ccc(C)s1)Nc1ccccc1-2 (stereo not given)	-2%	nt	-4.8%	?	13%[46.1 µM]	nt	11%	nt
O=C(Nc1cccc(Br)c1)c1cc2ccccc2o1	nt	-26%	-5.8%	?	-13%	?	-8%	-134%
CC(C)CC(=O)c1c[nH]c(C(=O)NCc2cccnc2)c1	10%	-1%	nt	6%	28%[46.1 µM]	-8%	nt	nt
CN(c1ccc(C(=O)NCCSCc2c(F)cccc2Cl)cc1)S(C)(=O)=O	?	0%	nt	-25%[46.1 µM]	?	-8%	nt	-4%
CC(=O)N1CCN(S(=O)(=O)c2cccc(C(=O)Nc3ccc4c(c3)OCO4)c2)CC1	7%	0%	nt	14%	3%[46.1 µM]	-5%	nt	nt
O=C(/C=C/c1ccc(OCCCF)cc1)NCc1ccc(Cl)c(Cl)c1	-22%	-4%	0.1%	-3%	4%[46.1 µM]	-8%	7%	1%
Cc1ccc(C(=O)Nc2ccc(Cl)cc2C(=O)c2ccccc2)cc1	0%	nt	nt	-17%	-23%	-10%	nt	nt
CCN(CC)CCNC(=O)CCc1c(C)nc2c(c(C)nn2-c2ccc(C)c(C)c2)c1C	-17%	-1%	nt	nt	nt	-7%	nt	-4%
COC(=O)[C@H](C)NC(=O)NCc1ccco1	2%	-4%	-0.5%	26%[14.3 µM]	4%	12%	-9%	2%
CCCS(=O)(=O)N1CCCC(C(=O)NCCN(C)Cc2ccccc2)C1 (stereo not given)	?	7%	5.4%	14%	1%	7%	-2%	-4%
CCOC(=O)C1=C(C)Nc2nc3ccccc3n2C1c1cccs1 (stereo not given)	-20%	-19%	-3.4%	-1%	-3%	23%	-8%	14%
Cc1ccc(S(=O)(=O)NCCCCCC(=O)Nc2ccccc2)cc1	-11%	14%	-1.1%	-3%	-3%	12%	-2%	3%
Cc1cccc(CSc2cn(CC(=O)N3CCCC3)c3ccccc23)c1	28%	nt	-9.6%	-21%[46.1 µM]	nt	nt	?	nt
NC(=O)C1CCN(C(=O)COc2ccc3ccccc3c2Br)CC1	1%	?	nt	4%	22%	-1%	nt	9%
COc1ccc(NC(=O)N2CCC(C(=O)c3ccc(F)cc3)CC2)cc1	-24%	-1%	0.4%	-26%	-1%	2%	-1%	-10%
CC(=O)Nc1nnc(-c2c(-c3ccccc3Cl)noc2C)o1	-3%	0%	nt	9%	-8%[14.2 µM]	-7%	nt	0%
O=c1nc2sc3ccccc3n2c(=O)n1-c1ccc(Cl)cc1	58%[activator]	2%	nt	nt	?	-10%	nt	-2%
NNC(=O)CNC(=O)c1ccc(F)cc1	-11%	17%	-0.8%	5%	?	15%	-12%	-3%
COc1cccc(N2CCN(c3ncccn3)CC2)c1	nt	11%	2.6%	18%	?	-19%	-3%	-1%
Cc1ccnc(NS(=O)(=O)c2ccc(NC(=O)c3ccc(C)o3)cc2)n1	-3%	8%	-4.8%	-13%	?	-3%	-6%	2%
CCOC(=O)CC1(NC(=O)C2CCC(=O)N(Cc3ccccc3F)C2)CCCCC1 (stereo not given)	24%	-1%	nt	nt	nt	-2%	nt	1%
CCN(CC)c1ccc(NC2CC(=O)N(CCc3ccc(OC)cc3)C2=O)cc1 (stereo not given)	-18%	4%	nt	-11%	-19%[46.1 µM]	-16%	nt	8%
CC(C)CN1C2CCCC1CC(NC(=O)c1ccc([N+](=O)[O-])cc1)C2 (stereo not given)	-9%	3%	nt	nt	nt	2%	nt	?
COc1ccc2c(c1)OC(O)(C(F)(F)F)CC2=O (stereo not given)	6%	-5%	2.5%	13%	3%	5%	5%	-5%
CC1=C(C(=O)Nc2cccnc2)C(c2cccc(Br)c2)n2nc(SCc3ccccc3)nc2N1 (stereo not given)	-8%	nt	0.0%	?	-1%[46.1 µM]	nt	-3%	nt
CCOc1ccc(-c2cc3nc(C4CCN(C(=O)OC(C)(C)C)CC4)c(C(=O)Nc4ccc(C)c(F)c4)cn3n2)cc1	0%	nt	-4.9%	18%[46.1 µM]	?	nt	?	nt
CN(C)c1ccc(N=Nc2cccc(F)c2)cc1	-28%	-3%	nt	?	0%[46.1 µM]	5%	nt	-3%
O=C(CCNS(=O)(=O)c1ccc(Cl)cc1)N1CCOCC1	3%	5%	nt	11%	12%	1%	nt	28%
COc1ccc(C(=O)C2CCCN(Cc3cn[nH]c3-c3ccc(F)cc3)C2)cc1OC (stereo not given)	-14%	-1%	nt	-20%[46.1 µM]	?	-15%	nt	1%
O=C(/C=C/Nc1nccs1)C(F)(F)Cl	5%	2%	nt	2%[46.1 µM]	?	9%	nt	5%
Cc1cc(C)cc(-n2ccnc2SCC(=O)Nc2cccc3ccccc23)c1	-23%	nt	-5.6%	?	nt	nt	7%	nt
COc1ccc(N2CCN(Cc3nc4c(c(=O)n(C)c(=O)n4C)n3Cc3cccc(C)c3)CC2)cc1	-26%	0%	-7.1%	nt	nt	4%	?	-6%
CCOc1cc(NC(=S)NCc2ccco2)c(OCC)cc1NC(=O)C1CC1	-7%	3%	-7.5%	3%	2%	0%	-4%	5%
CCOc1ccccc1NC(=O)Nc1cc(C(=O)NCc2ccc(C)cc2)ccc1N1CCCC1	-4%	nt	-2.1%	-6%[46.1 µM]	nt	nt	-4%	nt
COc1cccc(C(=O)NNC(=O)C(=O)N2CCCCC2)c1	11%	1%	nt	-11%	18%[46.1 µM]	21%	nt	2%
Cc1nn(CCCC(=O)NCCCN2CCN(C)CC2)c(=O)c2c1sc1ccccc12	-13%	-1%	nt	nt	nt	-7%	nt	4%
O=C(N/N=C/C=C\c1ccccc1[N+](=O)[O-])c1cccnc1	-13%	2%	nt	9%	20%	-1%	nt	5%
COc1ccc2nc(Cl)c(C3CC(c4ccco4)=NN3C(=O)CCC(=O)O)cc2c1 (stereo not given)	-1%	16%	-11%	12%	10%	5%	3%	10%
COc1ccc([C@@H]2[C@@H]3C(=O)N(C(C)(C)C)C(=O)[C@@H]3[C@]3(C)C(=O)N(c4cccc(Br)c4)C(=O)N23)cc1	-14%	14%	nt	nt	nt	1%	nt	-21%
Cc1cccc(C)c1OCC(=O)Nc1ccc(Cl)cc1C(=O)c1ccccc1	-5%	nt	-5.9%	-27%[46.1 µM]	nt	nt	-16%	nt
COc1ccc(OCC(=O)N(Cc2ccco2)C2CCS(=O)(=O)C2)cc1 (stereo not given)	-8%	-1%	nt	-19%[46.1 µM]	-14%[46.1 µM]	0%	nt	0%
COc1ccc(NC(=O)CN(C)CC(=O)NC2CCC(C)CC2)cc1 (stereo not given)	-14%	-1%	nt	-9%	10%	-7%	nt	nt

Compounds were not picked by outcome. About 4.6% of those tested had a hit in this group.
